GIV-Gai inh – blocks GIV peptide binding to rat Galpha-i3 | P08753 | Galpha-i3/FITC-GIV peptide fluorescence polarization, 90 min; active compounds read low; scaled: aluminum fluoride 0%, vehicle 100% | percent of control (FP), % (concentration not given with the values) | 210,000 tested, 0.42% active;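 active = replicate mean at 85% of control or lower, very high polarization wells dropped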;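 note: wells of about 15 µL received 100 nL stock; the first replicate is given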
Target sequence (P08753 whole entry, looked up): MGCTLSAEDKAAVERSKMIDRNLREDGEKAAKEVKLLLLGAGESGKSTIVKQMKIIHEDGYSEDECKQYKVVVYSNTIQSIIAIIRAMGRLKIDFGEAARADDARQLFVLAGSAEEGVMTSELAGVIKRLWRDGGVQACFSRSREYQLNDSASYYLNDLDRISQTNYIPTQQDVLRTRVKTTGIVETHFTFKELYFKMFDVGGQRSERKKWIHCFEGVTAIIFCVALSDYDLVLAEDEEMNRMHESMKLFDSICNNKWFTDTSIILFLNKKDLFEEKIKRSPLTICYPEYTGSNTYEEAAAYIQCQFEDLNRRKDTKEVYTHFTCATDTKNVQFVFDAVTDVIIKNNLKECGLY
* hit, by the source's call. This is a subset, so the mix of outcomes need not match the whole.

SMILES	GIV-Gai inh
COCCOC(=O)C1=C(C)NC(=O)CC1c1cccc(Cl)c1 (configuration not stated)	109.7
Cc1nnc(NC(=O)CSc2nnc3[nH]c(=O)cc(C)n23)s1	107.3
CCCOc1c(C(=O)OC)sc2ccc(NC(=O)C3CC(=O)N(CCc4ccc(C)cc4)C3)cc12 (configuration not stated)	102.3
Cc1ccc(-n2cc(C(=O)N3CCCCC3)nn2)cc1C	102.6
COc1ccc(C2CC(C(F)(F)F)n3nc(C(=O)Nc4ccc(Cl)cc4)cc3N2)cc1 (configuration not stated)	101.3
O=C(NC1CCCC1)c1ccc2ccnc(N3CCN(c4ccccc4)CC3)c2c1	106.2
O=C(Nc1ccc(F)cc1F)c1nnc(C2CCN(C(=O)C3CCCCC3)CC2)s1	102.1
CCCC(=O)NCc1nc2cccnc2n1CCOC	102.7
COc1ccc(C2N3CC4([N+](=O)[O-])CN2CC([N+](=O)[O-])(C3)C4(C)C)cc1 (configuration not stated)	109.7
O=C(NCc1c(-c2ccccc2)nc2n1CCS2)c1ccccc1	97.8
CC(=O)Nc1ccc(C(=O)N(Cc2cccnc2)C2(C(=O)NCc3ccccc3)CCN(C(C)=O)CC2)cc1	102.0
Cc1[nH]n(-c2ccccc2)c(=O)c1C(c1ccc(OCc2ccc(F)cc2)cc1)c1c(C)[nH]n(-c2ccccc2)c1=O	112.2
O=C1CSC2(C(=O)Nc3ccccc32)N1c1cc(F)ccc1F (configuration not stated)	114.7
CN(C(=O)c1cccc(Oc2ccnc(-c3ccc(F)cc3)n2)c1)C1CCCCC1	108.8
CC1=C(C(=O)OC(C)C)C(c2ccco2)C(C#N)=C(N)O1 (configuration not stated)	133.5
C=CCN(C(=O)c1ccc(N2CC3CC(C2)c2cccc(=O)n2C3)c(NC(=O)/C=C/c2ccccc2)c1)c1ccccc1 (configuration not stated)	106.4
Cc1nc2sccn2c(=O)c1NC(=O)Cc1ccc(F)cc1	105.5
Cc1ccc(-c2nc3sc(CCNS(=O)(=O)c4ccc(C)c(C)c4)c(C)n3n2)cc1	95.5
CCOC(=O)c1c(C)n(CCCNc2ccc([N+](=O)[O-])cc2Cl)c2ccc(O)cc12	109.0
CC(C)(C)c1ccc(N2C(=O)/C(=C/c3ccc(Cl)cc3)C=C2c2ccccc2)cc1	116.8
CCCCCNC(=O)c1ccc(CN2CCc3c(c(C(=O)N4CCCC4)nn3C)C2)cc1	104.9
O=C(CSc1nnc(NC(=O)NC2CCCCC2)s1)NCc1ccc(F)cc1	99.3
Clc1ccc(C2CC(c3cccs3)=Nc3ccccc3S2)c(Cl)c1 (configuration not stated)	107.9
Cc1csc(-c2cc(NC(=O)C3(c4ccccc4)CC3)c(C)s2)n1	110.7
Cc1ccc(S(=O)(=O)Nn2c(SCC(=O)NCc3ccccc3)nc3ccccc3c2=O)cc1	104.3
Cc1ccc(-c2n[nH]c3c2C(c2ccc(C)cc2)N(c2ccc(F)cc2)C3=O)cc1 (configuration not stated)	108.5
CN(C)CC1CCN(C(=O)N2CCCCCC2)CC1	100.2
CCOCCCNC(=O)C1CCN(c2ncc(-c3cccc(C)c3)cn2)CC1	98.8
CC1CCN(S(=O)(=O)c2ccc(-c3nnc(C(=O)NCCCN4CCCC4)o3)cc2)CC1	104.9
CC(C)c1nnc2ccc(N3CCCC3)nn12	109.6
COc1cccc2cc(-c3csc(NC(=O)CCC(=O)NCc4ccco4)n3)c(=O)oc12	112.7
CCCCNc1nc(SC(CC)C(=O)NCc2ccco2)nc2ccccc12 (configuration not stated)	114.7
Cc1nc(-c2ccc(F)cc2)sc1-c1ccc(SCc2ccncc2)nn1	95.6
CSc1nnc(-c2ccccc2)c(=O)[nH]1	105.6
O=C(NCc1ccco1)c1ccc2c(=O)n(-c3cc(C(F)(F)F)ccc3Cl)c(=S)[nH]c2c1	108.7
Cc1noc(C)c1C1CCCN1C(=O)c1ccn(C)n1 (configuration not stated)	97.6
O=C(Nc1ccccc1C(=O)N1CCCC1)c1nsc2ccccc12	103.0
COc1ccc(-c2nn(-c3ccccc3)cc2C2SCC(=O)N2Cc2ccccc2)cc1[N+](=O)[O-] (configuration not stated)	110.2
O=C(Nc1ccc(F)cc1)c1ccc(C2Nc3ccccc3S(=O)(=O)N2)cc1 (configuration not stated)	99.5
C=Cc1ccc(CSc2nc3c(c(=O)[nH]2)CN(Cc2ccccc2)CC3)cc1	102.1
CCSc1nc2n(n1)C(c1cccc(Br)c1)C(C(=O)Nc1ccccc1C)=C(C)N2 (configuration not stated)	103.3
CC(C)Cn1nc2c(S(=O)(=O)N3CCN(c4ccc(F)cc4)CC3)cccn2c1=O	101.9
CC(C)c1cc(C2CCCN2S(=O)(=O)c2ccc(Br)cc2)no1 (configuration not stated)	97.0
CCOC(=O)C1=C(C)NC2=C(C(=O)c3ccccc32)C1c1cc(Br)c(OC)c(OCC)c1 (configuration not stated)	109.9
O=C(Nc1ccc(F)cc1)c1nc(N2CCOCC2)c2oc3ccccc3c2n1	107.9
Cc1nn(-c2cccc(F)c2)c2sc(C(=O)Oc3ccc4sc(=O)oc4c3)cc12	100.8
Cc1ccccc1C1Nc2ccc3ncccc3c2C2=C1C(=O)CCC2 (configuration not stated)	113.1
O=C(CSc1nc2[nH]ncc2c(=O)n1-c1ccc(Cl)c(Cl)c1)NCc1ccccc1Cl	110.6

The list goes on:
compound,GIV-Gai inh
CC(C)c1cc(C2CCCN2C(=O)Nc2ccc(F)cc2F)no1 (configuration not stated),104.6
CC12CCC(CN(CC(O)Cn3c4ccccc4c4ccccc43)C1)C2(C)C (configuration not stated),126.0
C=CCn1c(SCC(=O)Nc2ccc3c(c2)OCCO3)nc2sc3c(c2c1=O)CCC3,93.9
CC(C)c1ccc(C2Nc3ccc4ncccc4c3C3=C2C(=O)CCC3)cc1 (configuration not stated),110.5
COc1ccc(OC)c(N2CC(O)(c3ccc([N+](=O)[O-])cc3)[N+]3=C2SCCC3)c1 (configuration not stated),106.5
CN(CCc1noc(C(=O)NCc2ccccc2)n1)C(=O)c1cc(-c2ccc(F)cc2)on1,104.6
Cn1c(=O)sc2cc(S(=O)(=O)N3CCN(C(=O)c4ccsc4)CC3)ccc21,103.1
Cc1cccc(NC(=O)C(Cc2c[nH]c3ccccc23)NC(=O)Oc2ccccc2)c1 (configuration not stated),101.6
COc1ccc(N2CC(c3nnc(NC(=O)Cc4cccc(OC)c4)o3)CC2=O)cc1 (configuration not stated),103.0
C#CCSc1nnc2c3ccccc3n(CC)c2n1,103.7
COC1OC(COC(C)=O)C(OC(C)=O)C(OC(C)=O)C1NC(C)=O (configuration not stated),105.1
Cc1nnc(NC(=O)CSc2c(C(C)C)cnc3c2c(=O)n(C)c(=O)n3C)s1,106.2
CC(=O)Nc1cc(Cl)ccc1OCc1cc(=O)n2oc(C)cc2n1,111.7
CCOC(=O)C1=C(C(=O)OCC)SC2(S1)C(C(=O)OCC)=C(C(=O)OCC)SC1=C2c2cc(OCC)ccc2NC1(C)C,105.4
CC(C)c1cc(C2CCCN2S(=O)(=O)Cc2ccccc2)on1 (configuration not stated),104.0
O=[N+]([O-])c1c(Sc2ncnc3ccccc23)ccc2nsnc12,102.6
CCC(Sc1nc(NCCc2ccccc2)c2ccccc2n1)C(=O)N1CCOCC1 (configuration not stated),107.7
CCOC(=O)C1=C(c2ccccc2)S/C(=C2/C(=S)C(C)(C)N(C(=O)CC(C)C)c3ccc(OCC)cc32)S1,102.6
C=CCn1nnc(NCc2ccc(-c3ccccc3Cl)o2)n1,101.4
Cc1cc2c(cc1C)N(C(=O)c1ccccc1Cl)C(C)(C)c1ssc(=S)c1-2,118.1
COc1ccc(-n2ncc3c(N4CCN(c5ccccc5)CC4)ncnc32)cc1,112.8
O=C(CSc1nc2ccccc2c(=O)n1CC1CCC(C(=O)NCc2ccccc2)CC1)NCc1ccco1 (configuration not stated),103.2
CCCOc1ccc(CNC(=O)c2ccc(Nc3ncc(-c4cccc(F)c4)cn3)cc2)cc1,106.4
COc1ccc(NC(=O)c2nnc(C3CCN(S(=O)(=O)c4ccc(C)cc4)CC3)s2)cc1,109.4

Four entries from above, sorted by the value under GIV-Gai inh, rising.
molecule	GIV-Gai inh
C=CCn1nnc(NCc2ccc(-c3ccccc3Cl)o2)n1	101.4
O=[N+]([O-])c1c(Sc2ncnc3ccccc23)ccc2nsnc12	102.6
CCC(Sc1nc(NCCc2ccccc2)c2ccccc2n1)C(=O)N1CCOCC1 (configuration not stated)	107.7
COc1ccc(-n2ncc3c(N4CCN(c5ccccc5)CC4)ncnc32)cc1	112.8

Continued.
compound,GIV-Gai inh
CCN1CCN(Cc2nc3nc(C)cc(N4CCC(C)CC4)n3n2)CC1,99.8
Cc1c(Cl)cccc1NC(=O)CSc1ncccc1C(=O)O,114.4
CSC1=NC(=Nc2ccc(C)cc2)C2(CCC(C(C)(C)C)CC2)N1c1cccc(O)c1 (configuration not stated),104.4
O=S1(=O)N=CN(c2ccc(F)cc2)c2ncccc21,105.3
CCOC(=O)Cn1nc2ccc(S(=O)(=O)N3CCC(C)CC3)cn2c1=O,101.5
FC(F)(F)c1cccc(N=c2scc(-c3ccc(C4CCCCC4)cc3)n2CCc2ccccc2)c1,108.5
O=C(Nc1ccc2c(c1)CN(Cc1ccccc1)C2)Nc1ccccc1Cl,96.6
Cc1ccc(C)c(N2C(=O)/C(=C/c3ccc(Cl)cc3)C=C2c2ccccc2)c1,130.3
COc1cc(C2C(C#N)=C(N)Oc3cc(C)oc(=O)c32)ccc1OC(=O)N1CCOCC1 (configuration not stated),108.1
O=C(CSc1nnc(NC(=O)c2ccccc2Br)s1)Nc1ccccc1F,116.6
COc1ccc(Oc2cc(-c3cccc(C(=O)NC4CC4)c3)ncn2)cc1,105.2
O=C(NC1CC1)C1=C2CCCN2c2ccc(F)cc2S1(=O)=O,100.7
O=C(NCCc1nc2ccccc2[nH]1)c1ccc(N2CCCN(Cc3ccc(F)cc3)C2=O)cc1,101.5
O=C(Nc1ccc2c(c1)OCCO2)Nc1nnc(CC(=O)N2CCCC2)s1,105.4
COc1ccc(OC)c(C(c2c(C)n(C)n(-c3ccccc3)c2=O)c2c(C)n(C)n(-c3ccccc3)c2=O)c1,97.6
Cc1cccc(-c2cncc(C(=O)NC3CCCCC3)c2)c1,99.1
COc1ccc(CCNc2ccc(-c3nc(-c4ccccc4)no3)cn2)cc1OC,101.6
O=C(NCc1csc(-c2ccccc2)n1)[C@H]1CSCN1C(=O)C1CCCC1,101.9
CCCCNC(=O)c1cccc(-c2cc(N3CCCC3)ncn2)c1,101.7
O=c1/c(=C/c2ccc(-c3cc(C(F)(F)F)cc(C(F)(F)F)c3)o2)sc2nc3ccccc3n12,101.5
COCCNC(=O)c1cc2c(s1)N(C)CCC2,99.3
COc1cc(Nc2nc(-c3nnn(-c4ccc(F)cc4F)c3C)ns2)cc(OC)c1,97.8
CCOc1ccc(C2=Nn3cnnc3SC2)cc1,111.1
Cc1cccc(NC(=O)C2CCN(c3ncnc4onc(-c5ccc(F)cc5)c34)CC2)c1,97.7
CN(C)S(=O)(=O)c1ccc2c(c1)cc(C(=O)N1CCCC1)n2Cc1ccncc1,95.5
CCc1ccc(N2C(=O)C3C4c5ccccc5C(C=O)(c5ccccc54)C3C2=O)cc1 (configuration not stated),101.3
O=C(c1ccccc1)N1CCc2c([nH]c3ccccc23)C1c1ccc2c(c1)OCO2 (configuration not stated),108.1
Cc1c(NS(=O)(=O)c2ccc3c(c2)C(=O)c2ccccc2C3=O)c(=O)n(-c2ccccc2)n1C,109.2
CCN1CCCn2nc(C3CCN(C(=O)NCC4CCCO4)CC3)cc2C1=O (configuration not stated),97.1
CCOc1ccc(C(=O)Nc2ccc3oc(-c4cccnc4)nc3c2)cc1Br,111.0
CC1CCN(c2nc(Cl)nc(NCCN3CCOCC3)n2)CC1,102.6
O=S(=O)(c1ccccc1Cl)N1CCN(c2ncnc3c2nnn3-c2ccc(F)cc2)CC1,98.7
COc1cccc(NC(=O)CSc2nc3c(sc(=S)n3-c3cccc(OC)c3)c3nc4ccccc4n23)c1,99.0
Cc1ccc(C)c(NC(=O)N(C)CCc2noc(C(=O)NCc3ccc(Cl)cc3)n2)c1,102.9
Cc1cc(C)c(-c2csc(Nc3ccc(F)cn3)n2)cc1C,98.6
Cc1ccc2c(c1)NC(=O)CC(c1ccccc1)=N2,119.4
Cc1ccc(C(=O)N/C(=C\c2cccs2)C(=O)NCCCn2ccnc2)cc1C,105.3
Cc1ccc(Cl)cc1N1CCN(CCNC(=O)c2csc(-c3ccncc3)n2)CC1,102.8
COc1cc(-c2c(C#N)c(N)nc3sc(C#N)c(N)c23)cc(OC)c1OC,105.1
COc1ccc(-c2nnn(Cc3nc(N)nc(N4CCOCC4)n3)n2)cc1OC,101.1
COc1ccccc1CNC(=O)CSc1nc2[nH]ncc2c(=O)n1-c1ccc(Cl)cc1Cl,108.2
N#Cc1cc2c(nc1SCC(=O)Nc1ccccc1F)CCCCC2,98.1
O=c1[nH]c2ccc(S(=O)(=O)Nc3ccccc3)cc2[nH]1,98.7
Cc1nc(-c2ccc(Cl)c(S(=O)(=O)N3CCCC(C(=O)NC4CCC(C)CC4)C3)c2)no1 (configuration not stated),97.8
COc1ccc(-n2c3nc(=O)[nH]c(=O)c-3cc3ccccc32)cc1,71.1*
Cc1nccc2[nH]c(=O)c(C(=O)NCCCN3CCN(c4ccccc4F)CC3)cc12,107.4
CCN1CCN(C(=O)NC2COc3ccccc3C2)CC1 (configuration not stated),101.9
O=C(Cn1cnc2c(sc3ncccc32)c1=O)Nc1ccc(F)cc1Cl,103.2

3 successive entries from above:
compound,GIV-Gai inh
COc1cc(-c2c(C#N)c(N)nc3sc(C#N)c(N)c23)cc(OC)c1OC,105.1
COc1ccc(-c2nnn(Cc3nc(N)nc(N4CCOCC4)n3)n2)cc1OC,101.1
COc1ccccc1CNC(=O)CSc1nc2[nH]ncc2c(=O)n1-c1ccc(Cl)cc1Cl,108.2

High-throughput results deposited in PubChem BioAssay by ICCB-Longwood Screening Facility, Harvard Medical School.
